Cruzain noTriton: cruzain (T. cruzi) inhibition without detergent. P25779. purified cruzain, Z-FR-AMC fluorescence, no detergent. Potency, µM, for inactives: max response, negative = inhibition, most hits filed as inhibitors. 2.3% of 200,000 active. AID 1476; active = well fitted curve in the direction sought with a large enough effect; inconclusive = small, poorly fitted or top-dose-only effect, or another doubt; inactive = no such curve, though single readings can be large; an effect the other way counts as inactive or inconclusive;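 also: plate controls were enzyme without inhibitor for no effect and buffer without enzyme for full effect; nearly all actives have a fitted effect of over 40% in size; top concentration of the series not given in the record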
Target sequence (P25779 123-467 limits assumed): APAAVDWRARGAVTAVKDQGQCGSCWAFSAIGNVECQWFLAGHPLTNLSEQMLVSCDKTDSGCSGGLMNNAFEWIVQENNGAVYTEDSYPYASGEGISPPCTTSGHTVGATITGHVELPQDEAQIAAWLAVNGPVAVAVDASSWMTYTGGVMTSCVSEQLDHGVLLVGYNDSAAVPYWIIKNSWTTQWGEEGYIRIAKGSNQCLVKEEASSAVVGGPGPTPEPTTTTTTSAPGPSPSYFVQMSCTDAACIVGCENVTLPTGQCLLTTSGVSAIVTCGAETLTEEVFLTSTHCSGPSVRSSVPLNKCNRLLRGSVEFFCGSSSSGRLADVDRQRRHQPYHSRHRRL
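Detergent-free condition (0.00005% Triton X-100) in acetate buffer pH 5.5 with DTT. 1.5 nM enzyme and compound were pre-mixed 15 min, then 2 uM Z-FR-AMC substrate added; reaction progress from fluorescence change between first and third reads (60 s).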
SARS PLpro yeast: blocks SARS-CoV papain-like protease in a yeast assay; S. cerevisiae expressing SARS-CoV PLpro, growth rescue; control for the full effect not named in the record; Potency, µM (doses to about 32.9 µM), without a hit: at the top dose activity, positive = growth rescue; 0.19% of 330,000 active; also: 0% is about no effect; nearly all actives have a fitted effect of over 55% in size; growth read by luminescence after 48 h
RE007 growth inh: less growth of the S. pombe RE007 Vpr strain; 0.21% of 360,000 active; S. pombe RE007 Vpr strain, BacTiter-Glo ATP luminescence, 24 h; control for the full effect not named in the record; Potency, µM (highest dose often 92.2 µM), inactives show top-dose activity change, negative = less growth; active = well fitted falling curve with a large enough effect; inconclusive = small, poorly fitted or top-dose-only effect; inactive = no such curve, though single readings can be large or run the other way;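 also: % is scaled to controls: 0 for no effect and ±100 for the full control effect; nearly all actives have a fitted effect of over 50% in size; the assay follows cell death caused by Vpr and the record does not say whether a fall means rescue or toxicity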
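Fission yeast strain RE007, carrying one chromosomally integrated HIV-1 vpr copy, was seeded at OD 0.01 in PMG+AL medium with 23 nL pinned compound. After 24 h at 30 °C and 99% humidity, viability was read by BacTiter-Glo luminescence.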
StopGo reporter: FMDV 2A StopGo reporter, luciferase signal; Potency, µM (doses to about 57.9 µM), for the others: at the top dose signal change, negative = less light; 1.2% of 410,000 active; human cells with a luciferase reporter of 2A StopGo recoding; control for the full effect not named in the record; active = well fitted falling curve with a large enough effect; inconclusive = small, poorly fitted or top-dose-only effect; inactive = no such curve, though single readings can be large or run the other way; tested in HEK293T cells; also: % is scaled to controls: 0 for no effect and ±100 for the full control effect; nearly all actives have a fitted effect of over 45% in size; luciferase light after 4 h
MARV entry inh: blocks Marburg virus binding to or entry into cells | AID 540276 | Potency, µM (top dose mostly 37.8 µM), for inactives: at the highest dose activity change, negative = inhibition, hits mostly inhibitors | 1.8% of 300,000 active | Marburg virus pseudotyped entry inhibition, cell reporter; control for the full effect not named in the record; about a third of the inactives were read at about 46 µM; active = well fitted inhibition curve with a large enough effect; inconclusive = small, poorly fitted or top-dose-only effect, or effect the other way; inactive = flat fitted curve, though single readings scatter; tested in HEK293 cells; about a fifth of its hits are not listed in these tables; also: % is scaled to controls: 0 for no effect and ±100 for the full control effect; luciferase read-out
LASV entry inh: Lassa virus entry inhibition; Lassa virus pseudotype entry inhibition, cell reporter; control for the full effect not named in the record; Potency, µM (series often up to 37.9 µM), inactives show at the highest dose activity change, negative = inhibition, hits mostly inhibitors; 1.2% of 300,000 active; AID 540256; active means well fitted inhibition curve with a large enough effect; inconclusive means small, poorly fitted or top-dose-only effect, or effect the other way; inactive means flat fitted curve, though single readings scatter; tested in HEK293 cells; also: % is scaled to controls: 0 for no effect and ±100 for the full control effect; nearly all actives have a fitted effect of over 50% in size; luciferase read-out
Cruzain Triton: cruzain (T. cruzi) inhibition with detergent; P25779; purified cruzain, Z-FR-AMC fluorescence, 0.01% Triton; Potency, µM, inactives show max response, negative = inhibition, usual class: inhibitors; 0.43% of 200,000 active; AID 1478; active = well fitted curve in the direction sought with a large enough effect; inconclusive = small, poorly fitted or top-dose-only effect, or another doubt; inactive = no such curve, though single readings can be large; an effect the other way counts as inactive or inconclusive;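 also: plate controls were neutral wells for no effect and buffer without enzyme for full effect; nearly all actives have a fitted effect of over 40% in size; top concentration of the series not given in the record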
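Steps: dispense cruzain (1.5 nM final) in acetate buffer pH 5.5 with DTT and 0.01% Triton X-100; pin-transfer compounds; incubate 15 min RT; add Z-FR-AMC (2 uM final); read fluorescence every 30 s, using the 60 s intensity change.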
NS1 function inh: inhibitors of influenza NS1 protein function; S. cerevisiae slowed by influenza A NS1, growth recovery by OD600; Potency, µM (highest dose often 46.1 µM), inactives show top-dose activity, positive = more growth; 0.4% of 270,000 active; AID 2326; also: actives are rising curves; nearly all actives have a fitted effect of over 50% in size
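Recovery from NS1-induced slow growth read by OD600 in budding yeast switched to galactose assay medium (pH 6.0, -URA) at 1:100 dilution. Compound 23 nl per well; the matching strain lacking NS1 serves as control.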
An asterisk follows results filed as active; ? = inconclusive; . = no result given; & = joins results of further samples; [ ] = another dose, or the depositor's remark. Unless noted, calls follow the shape of the dose curve; as a rule, active means well fitted rising curve with a large enough effect; inconclusive means small, poorly fitted or top-dose-only effect; inactive means no such curve, though single readings can be large or run the other way. Potency is read from the fitted curve at half-maximal effect.

SMILES | Cruzain noTriton | SARS PLpro yeast | RE007 growth inh | StopGo reporter | MARV entry inh | LASV entry inh | Cruzain Triton | NS1 function inh
Brc1ccc(C2=CSC3=NCCN23)cc1 | . | 0% | -5% | -13% | -3%[46.1 µM] | ? | . | .
O=C(c1cccs1)N(Cc1ccc(F)cc1)C1CCS(=O)(=O)C1 (stereo not given) | . | 9% | -3% | 5% | ? | 25%[46.1 µM] | . | 18%
CCOC(=O)c1sc(NC(=O)CSc2nc3ccccc3o2)c(C(=O)OCC)c1C | 6% | 24% | -1% | -20% | ? | 24% | -5.7% | -3%
O=C(NCC(c1ccco1)N1CCN(c2ccc(F)cc2)CC1)C(=O)NC1CC1 (stereo not given) | . | -1% | -10% | -27% | ? | -7% | . | .
CSCCC(NS(=O)(=O)c1ccc(C)cc1)C(=O)N1CCN(S(=O)(=O)c2ccc(F)cc2)CC1 (stereo not given) | . | 3% | 8% | -14% | 14% | ? | . | .
COc1ccc(NC(=O)CCOc2cc(C)ccc2C)cc1S(=O)(=O)N1CCCCC1 | . | -20% | 9% | ? | ? | ? | . | .
COc1ccc(/C=N/NC(=O)CCNc2n[nH]c(=O)[nH]c2=O)c(OC)c1 | . | -1% | 1% | -4% | -15%[46.1 µM] | 2%[46.1 µM] | . | .
COC(=O)Cn1c(=O)c2c(nc3n2CC(C)CN3Cc2ccccc2)n(C)c1=O (stereo not given) | . | 19% | -3% | 0% | 17%[46.1 µM] | -20%[46.1 µM] | . | ?
O=C(Nc1cccc(C(F)(F)F)c1)c1cc(-c2cccs2)on1 | -9% | 3% | -10% | 42%[activator] | -10% | 0% | -12% | -11%
O=C(Nc1ccccc1C(F)(F)F)c1cccnc1 | -4% | -7% | -7% | -14% | 13%[46.1 µM] | 3% | 3.6% | -36%
CC(NC(=O)c1ccccc1NC(=O)CSc1nnnn1C)c1ccccc1 (stereo not given) | 20% | -5% | 1% | -18% | 0% | -1% | 3.7% | -2%
O=[N+]([O-])c1ccc(Cl)cc1 | 1% | 3% | -8% | -1% | . | . | 7.7% | .
Cc1ccc(NC(=O)C2C3CCC(O3)C2C(=O)O)c(Br)c1 (stereo not given) | . | -5% | 3% | 15% | -15%[46.1 µM] | -5%[46.1 µM] | . | 3%
CCn1c(=O)c(C(=O)Nc2ccc(C)cc2)c(O)c2ccccc21 | . | -1% | 2% | 13% | -1% | ? | . | 20%
CC(C)c1ccc(NC(=O)c2cccc3c2C(=O)N(C2CCCCC2)C3)cc1 | -6% | . | . | -22% | 0%[46.1 µM] | 18%[46.1 µM] | -3.8% | .
CC1CCN(S(=O)(=O)c2cc(C(=O)N3CCN(c4cccc(Cl)c4)CC3)n(C)c2)CC1 | ? | . | . | ? | . | -22%[46.1 µM] | -17% | .
Cc1sc2nc(COC(=O)CNC(=O)c3ccc(C(C)(C)C)cc3)[nH]c(=O)c2c1C | -12% | 1% | -1% | 22% | -1% | -5% | -6.5% | 18%
CC(C)C(=O)Nc1ccc(NC(=O)c2cccc3c(Br)cccc23)cc1 | . | 0% | 8% | -15% | ? | -23%[46.1 µM] | . | 2%
CCOCCCNC(=O)c1ccc2nc(CCc3ccccc3)oc2c1 | -7% | . | . | 46%[activator] | . | -20%[46.1 µM] | -0.3% | .
COc1ccccc1CCNS(=O)(=O)c1cn(C)c(=O)n(C)c1=O | . | -5% | -3% | -23% | . | . | . | -3%
Cn1cnc2cc(NC(=O)c3ccco3)ccc21 | -4% | -2% | 8% | . | -2% | 13% | 8.0% | 1%
CCCCn1c(=O)c(CCC(=O)OC(C)C(=O)Nc2cccc(Cl)c2Cl)nc2ccccc21 (stereo not given) | 7% | ? | -20% | ? | -10% | 6% | -6.3% | 5%
CCN(CC)S(=O)(=O)c1ccc(C)c(NC(=O)COc2ccc(Cl)cc2Br)c1 | ? | -26% | -13% | -14% | ? | ? | -1.1% | 11%
O=C1CC(c2ccccc2)=NO1 | . | . | -8% | 0% | ? | 21%[46.1 µM] | . | .
COc1cc(/C=C2\SC(=O)N(CCNC(=O)c3c(C)noc3C)C2=O)cc(OC)c1OC | . | 5% | 14% | -23% | ? | -25%[46.1 µM] | . | .
CCOC(=O)c1[nH]c2ccc(Br)cc2c1NC(=O)CCN1CCN(C(=O)OCC)CC1 | -3% | -3% | -20% | -25% | -4%&-20% | -1% | -7.5% | -11%
O=C(C1CC1)N1CCc2cc(Br)cc(S(=O)(=O)Nc3ccc(C(F)(F)F)cc3)c21 | -25% | . | . | -11% | ? | ? | -7.4% | .
Cc1ccc(Cl)cc1N1CCN(C(=O)c2cccn2-c2nnc(N3CCCC3)s2)CC1 | 11% | . | . | ? | . | 1%[46.1 µM] | -1.2% | .
CCOC(=O)c1cc(-c2ccccc2)n(CC(=O)Nc2ccc(CC)cc2)c1C | -7% | . | . | 6% | . | 0%[46.1 µM] | -1.1% | .
Cc1ccc(Cl)cc1NC(=O)CN1C(=O)NC2(CCCCCC2)C1=O | . | -2% | 1% | -25% | -5% | 3% | . | .
CCOC(=O)C(C)Sc1nnc(Cc2cc(=O)[nH]c(=O)[nH]2)n1-c1ccc(Cl)cc1 (stereo not given) | -9% | 11% | 1% | -15% | . | . | -3.6% | 1%
COc1ccc(C(CNC(=O)C(=O)NC2CCCC2)N2CCN(C)CC2)cc1 (stereo not given) | . | 3% | 14% | -7% | -2%[46.1 µM] | -22% | . | .
Cc1cc(C)n2nc(CC(=O)NC3CCCC(C)C3C)nc2n1 (stereo not given) | -17% | -2% | 11% | 10% | 9%&9% | 3% | -7.8% | 1%
CCC(=O)N1CCc2cc(S(=O)(=O)N3CCCCC3CC)ccc21 (stereo not given) | . | -1% | 15% | -10% | -5%[46.1 µM] | 18%[46.1 µM] | . | -11%
Clc1ccc(OCCN2CCN(c3ncnc4sccc34)CC2)cc1 | 22% | -3% | 20% | ? | ? | ? | 17% | -26%
c1ccc(C2(Cn3ccc4ccccc43)OCCO2)cc1 | -11% | -12% | -24% | -13% | -8% | 0% | 0.5% | -10%
COC(=O)CSc1nc(C)c(C(C)=O)cc1C#N | -12% | 5% | -12% | 33%[activator] | ? | ? | 1.9% | -7%
Cc1ccc(NC(=O)Cn2ccsc2=N)cc1S(=O)(=O)N(C)C | . | 1% | -4% | 16% | -24%[46.1 µM] | -4%[46.1 µM] | . | -3%
CCn1ccc2cc(S(=O)(=O)N3CCC(C(=O)NCc4cccc(Cl)c4)CC3)ccc21 | -21% | . | . | -14% | . | -21%[46.1 µM] | -3.4% | .
O=C(NC1CCCCC1)C1CN(S(=O)(=O)c2ccccc2)CCN1S(=O)(=O)c1ccccc1 (stereo not given) | 0% | 1% | -11% | 14% | ? | 0% | 3.5% | -2%
COc1ccc2oc(C(=O)OCC(=O)NC3(C#N)CCCC3)c(C)c2c1 | . | 2% | -9% | -3% | 23% | 19% | . | .
O=c1cc(NS(=O)(=O)c2ccccc2)nc(SCc2ccccc2Cl)[nH]1 | -2% | -5% | . | ? | ? | ? | -1.0% | 10%
CCOc1ccc(-n2c(SCC(=O)N3CCOCC3)nc3c([nH]c4ccccc43)c2=O)cc1 | -6% | . | . | -14% | . | 17%[46.1 µM] | -0.9% | .
Cc1ccc(OCC(=O)Nc2ccccc2C(=O)OCc2cc(=O)n3nc(C4CC4)sc3n2)cc1 | 2% | . | . | ? | . | 9%[46.1 µM] | -0.1% | .
Cc1ccc(Cl)c2c1NC(=O)C2(O)CC(=O)c1ccc(Br)cc1 (stereo not given) | -2% | -5% | 2% | -25% | 30% | 2% | -8.0% | -5%
CN(CCC1CCOCC1)C(=O)CC1C(=O)NCCN1Cc1ccoc1 (stereo not given) | . | 1% | 1% | 2% | -20%[46.1 µM] | -9%[46.1 µM] | . | -1%
CCOc1ccc(CCNC(=O)Cc2ccc(NC(=O)N3CCSc4ncccc43)cc2)cc1 | 20% | . | . | 0% | . | 0%[46.1 µM] | -10% | .
C[C@@H]1NC(=O)N(c2ccc(F)cc2)C1=O | . | -3% | -4% | -16% | ? | 2% | . | 3%
CC1CCN(S(=O)(=O)c2ccc(NN=C(C#N)C#N)cc2)CC1 | ? | -11% | . | . | 6% | . | -5.9% | -11%
CC(C)n1nnc2ccccc2c1=O | 8% | 1% | -1% | 3% | 9% | 1% | -2.1% | 9%
Next results
SMILES | Cruzain noTriton | SARS PLpro yeast | RE007 growth inh | StopGo reporter | MARV entry inh | LASV entry inh | Cruzain Triton | NS1 function inh
COc1cccc(NC(C)C(=O)Nc2cc([N+](=O)[O-])ccc2Cl)c1 (stereo not given) | . | -10% | 8% | -11% | ? | ? | . | .
CCC(=O)Nc1cccc(-c2nc3ccccc3c(=O)o2)c1 | -4% | 8% | 14% | 11% | 20% | 0% | -0.4% | -12%
Cc1ccc(-c2cc(C(=O)NCCCn3ccnc3)no2)cc1 | . | 1% | 3% | 46%[activator] | . | . | . | 2%
Cc1cc(C)cc(-n2cnc3cc(C(=O)NCCc4ccccc4)ccc32)c1 | 10% | . | . | 24% | . | 3%[46.1 µM] | -1.5% | .
Cc1cc(C(=O)NCCCN2CCOCC2)n(-c2ccccc2)n1 | -6% | 0% | 1% | -18% | . | . | 2.0% | 1%
O=C(COC(=O)c1ccc(Br)cc1)NCCN1C(=O)CSC1=O | . | -1% | -17% | -14% | 17%[46.1 µM] | 12% | . | -2%
Cc1ccccc1N(CC(N)=O)S(C)(=O)=O | 0% | 3% | 113% | -14% | 8%[46.1 µM] | 1% | 11% | -7%
COc1ccc(NC(=O)COc2coc(CN3CCN(c4ccccc4)CC3)cc2=O)cc1 | . | -5% | -1% | ? | 3% | 18% | . | .
CCOc1ccc(C(=O)N2CCn3c2nc2ccccc23)cc1 | . | 1% | 1% | 21% | ? | ? | . | 4%
CCC(C)NC(=O)Cn1c(=O)sc2ccccc21 (stereo not given) | . | -1% | -2% | -11% | 13%[46.1 µM] | -8%[46.1 µM] | . | .

The order is random. About 4.7% of those tested had a hit in this group.
